Source: PubChem BioAssay
rRNA inh HTS: inhibits bacterial ribosomal RNA function over humanized ribosomes; E. coli WT GFP vs humanized-ribosome RFP mutants, fluorescence, 24 h; hits give low values; DMSO median 0, no signal -100; GFP signal change (wild-type ribosome), % (concentration not given with the values); hit rate 1.6% among 350,000; AID 720706;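 active = significant combined selectivity score with lowered wild-type GFP, culture density cut under 30%, mutant RFP and density less affected; inactive = any of these conditions unmet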; note: one replicate is shown; some compounds called inactive have numbers as strong as hits
AF4-AF9 inh: blocks AF4 peptide binding to human AF9 | P42568 | AlphaScreen, biotin-AF4 peptide binding to FLAG-AF9 | inhibition, % at 10 µM | hit rate 0.47% among 350,000;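 active = every replicate reaching a set inhibition limit, whatever the replicate mean, cut at about 25% in these data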;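 note: 0% = plate neutral control median and 100% = total signal loss; the record names both 10 and 1 µM as test concentration; the first replicate is given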
Target sequence (P42568 whole entry, looked up): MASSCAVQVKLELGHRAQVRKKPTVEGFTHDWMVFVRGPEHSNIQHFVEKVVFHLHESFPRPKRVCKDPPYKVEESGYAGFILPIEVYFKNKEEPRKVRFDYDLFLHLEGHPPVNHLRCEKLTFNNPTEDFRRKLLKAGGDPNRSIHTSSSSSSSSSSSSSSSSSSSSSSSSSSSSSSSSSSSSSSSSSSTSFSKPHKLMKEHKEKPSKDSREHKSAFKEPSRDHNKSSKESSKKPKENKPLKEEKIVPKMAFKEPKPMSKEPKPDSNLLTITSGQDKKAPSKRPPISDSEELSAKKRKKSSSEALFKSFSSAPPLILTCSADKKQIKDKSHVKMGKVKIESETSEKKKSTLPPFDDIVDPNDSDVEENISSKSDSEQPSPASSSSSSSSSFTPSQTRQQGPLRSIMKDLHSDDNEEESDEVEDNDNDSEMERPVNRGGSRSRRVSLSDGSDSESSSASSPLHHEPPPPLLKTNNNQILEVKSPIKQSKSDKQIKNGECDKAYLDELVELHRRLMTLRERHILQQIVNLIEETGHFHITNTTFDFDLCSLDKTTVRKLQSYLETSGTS
rRNA inh HTS OD600: further read-out of rRNA inh HTS, marked with its call; OD600 change, %; measured here: OD600 growth;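 optical density of the mix in the first replicate; 0 = DMSO median and -100 = no signal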
rRNA inh HTS RFP: second read-out of rRNA inh HTS, no call of its own (marks repeat the call); RFP signal change, %; measured here: RFP humanized mutant strains;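 first replicate; 0 = DMSO median and -100 = no signal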
Numbers without * were called inactive; & = joins results of further samples.

SMILES	rRNA inh HTS	rRNA inh HTS OD600	rRNA inh HTS RFP	AF4-AF9 inh
C[C@H](CO)N1C[C@H](C)[C@@H](CN(C)Cc2cccc(O)c2)OCc2ccccc2-c2c(n(C)c3ccccc23)C1=O	-24.9	-61.0	18.7	4.6
O=C(c1cccc(F)c1)N1CC(=O)N2[C@H](CO)[C@@H](c3ccc(-c4cccnc4)cc3)[C@H]2C1	-4.1	21.0	0.0	-0.8
CCCC#Cc1ccc([C@@H]2[C@H]3CN(C(=O)c4ccncc4)CC(=O)N3[C@H]2CO)cc1	-0.3	14.8	-1.7	-3.7
O=C(CCN1CCCCC1)NCC[C@@H]1CC[C@@H](NC(=O)C2CCCCC2)[C@@H](CO)O1	6.5	6.9	-2.8	-2.9
O=C(c1ccccc1)N1CC(=O)N2[C@H](CO)[C@@H](c3ccc(C#CCC4CCCC4)cc3)[C@H]2C1	-19.9	-43.2	27.5	9.5
COc1ccc(CN2CC3(C2)CN(Cc2ccc4c(c2)OCO4)[C@@H](CO)c2[nH]c4cc(OC)ccc4c23)cc1	4.4	-44.9	27.1	49.9*
O=C(CC1CC1)N1CC(=O)N2[C@@H](CO)[C@@H](c3ccc(-c4ccccc4)cc3)[C@@H]2C1	0.1	11.8	3.3	-8.8
CCCC(=O)N1CC2(CCN(CC3CCCC3)CC2)c2c([nH]c3cc(OC)ccc23)[C@H]1CO	-6.5	0.2	0.7	8.2
COc1ccc2c3c(n(C)c2c1)[C@H](CO)N(C(=O)Cc1ccccn1)CC31CN(Cc2ccccn2)C1	3.8	-6.5	2.5	4.0
Cc1cccc(S(=O)(=O)N2[C@@H]3Cn4c(cccc4=O)[C@H]2[C@@H](C(=O)N(C)C)[C@@H]3CO)c1	1.5	10.9	-0.2	-0.4
COCC#Cc1ccc([C@@H]2[C@@H](CO)N3C(=O)CN(C(=O)c4cccnc4)C[C@H]23)cc1	5.6	12.3	-3.2	4.1
O=C(C1CCOCC1)N1CC(=O)N2[C@@H](CO)[C@H](c3ccc(Br)cc3)[C@@H]2C1	5.2	16.8	-3.6	-5.0
O=C([C@H]1[C@H](CO)[C@H]2Cn3c(ccc(C4=CCCC4)c3=O)[C@@H]1N2)N1CCCCC1	1.8	6.6	-2.3	-2.2
CCNC(=O)[C@H]1[C@H](CO)[C@H]2Cn3c(cccc3=O)[C@@H]1N2Cc1cccc(Cl)c1	2.1	4.7	-0.1	-2.9
Cc1noc(C)c1S(=O)(=O)Nc1ccc2c(c1)C(=O)N([C@@H](C)CO)C[C@@H](C)[C@@H](CN(C)S(=O)(=O)c1cn(C)cn1)OCCCC[C@H](C)O2	6.3	7.9	-0.4	-0.4
CC(=O)N1CC(=O)N2[C@H](CO)[C@@H](c3ccc(C#Cc4cccnc4)cc3)[C@@H]2C1	-0.2	-1.3	1.7	-0.8
C/C=C/c1ccc(C2[C@H]3CNC[C@@H]2N3CC2CCOCC2)cc1 (some centres undefined)	4.1	9.0	-4.5	-1.0
O=C1CN(Cc2ccc(F)cc2)C[C@H]2[C@H](c3ccc(-c4ccccc4F)cc3)[C@@H](CO)N12	-9.6	-17.1	27.8	1.6
COc1ccc2c3c(n(C)c2c1)[C@H](CO)N(C(=O)CN(C)C)CC31CN(C(=O)C2CCC2)C1	3.0	5.4	0.2	0.8
CCCC#Cc1ccc([C@@H]2[C@@H](CO)N3C(=O)CN(C(=O)Nc4ccccc4F)C[C@@H]23)cc1	2.0	-27.6	14.0	-0.6
O=C(C1CCCCC1)N1CC(=O)N2[C@@H](CO)[C@H](c3ccc(-c4cccnc4)cc3)[C@@H]2C1	1.0	3.0	0.8	-0.5
CC(C)CC#Cc1ccc([C@@H]2[C@H](CO)N3C(=O)CN(C(=O)NC4CCCC4)C[C@@H]23)cc1	-1.0	-20.6	-0.1	7.4
C[C@@H]1CN([C@H](C)CO)C(=O)c2cc(NS(=O)(=O)c3ccccc3)ccc2O[C@@H](C)CCCCO[C@H]1CN(C)Cc1ccc(C(F)(F)F)cc1	-15.6	-37.0	18.8	4.6
CN1c2ccc(-c3ccccc3)cc2[C@H]2[C@H](CCN2C(=O)CC2CC2)[C@H]1CO	-1.9	-33.0	-2.5	-9.2
O=C1CN(S(=O)(=O)c2ccccc2)C[C@@H]2[C@@H](c3ccc(C#CCc4ccccc4)cc3)[C@@H](CO)N12	4.1	26.5	-5.1	-3.7
Cc1ccc(S(=O)(=O)N(C)C[C@@H]2OCCCC[C@H](C)Oc3ccc(NC(=O)CCC(F)(F)F)cc3C(=O)N([C@@H](C)CO)C[C@H]2C)cc1	2.1	6.2	1.9	0.2
O=C(c1ccccc1F)N1C[C@@H]2[C@H](c3ccccc31)[C@@H](CO)N2C(=O)c1ccc(F)cc1	-6.5	-5.1	-2.3	-3.9
O=C(C1CCC1)N1CC2(C1)[C@@H](c1ccccc1)[C@@H](CO)N2C(=O)c1cccnc1	-1.2	4.3	-1.0	-1.0
CO[C@@H]1CC[C@@H]2CCN(C)C(=O)[C@@H](C)N(C)C(=O)c3cccc(C#N)c3OC[C@@H]1O2	0.0	-4.0	1.1	1.8
COc1cccc(NC(=O)N[C@@H]2C=C[C@H](CC(=O)Nc3ccccc3)O[C@@H]2CO)c1	-2.6	-0.6	3.3	-2.2
CCC(=O)N1C[C@@H](C)[C@H](OC)CN(C)C(=O)c2ccc(NC(=O)CC(F)(F)F)cc2OC[C@H]1C	0.4	4.8	-0.3	-5.2
COc1ccc2c3c([nH]c2c1)[C@H](CO)N(C(=O)Nc1c(C)noc1C)CC31CCN(CC2CCCCC2)CC1	1.8	11.1	-2.8	11.5
C[C@@H]1CN([C@H](C)CO)C(=O)Cc2cc(NC(=O)Nc3ccc(C(F)(F)F)cc3)ccc2O[C@@H]1CN(C)S(C)(=O)=O	-1.5	-5.5	0.2	1.1
CO[C@@H]1CN(C)C(=O)c2cc(NC(=O)c3ccc(F)cc3)ccc2OC[C@H](C)N(C(=O)CN(C)C)C[C@H]1C	1.8	3.4	0.6	-1.1
c1ccc(-c2ccc(C3[C@H]4CNC[C@@H]3N4Cc3nccs3)cc2)cc1 (some centres undefined)	5.0&6.5	8.6&16.8	-1.5&3.7	0.2&5.1
COc1ccc(CN(C)C[C@H]2OCCCC[C@H](C)Oc3ccc(NS(=O)(=O)c4ccc(C)cc4)cc3C(=O)N([C@@H](C)CO)C[C@@H]2C)cc1	1.4	-10.1	20.1	3.9
COc1cccc(/C=C/C(=O)OCC(=O)N2c3ccccc3CC2C)c1 (centres undefined)	-18.2*	-22.4*	-3.0*	4.2
CCCNC(=O)[C@H]1[C@H](CO)[C@H]2Cn3c(ccc(-c4cccnc4)c3=O)[C@H]2N1Cc1cocn1	-0.3	-1.3	-2.3	-2.5
COc1ccc(NC(=O)N2CC(=O)N3[C@H](CO)[C@@H](c4ccc(Br)cc4)[C@@H]3C2)cc1	-3.8	7.8	-3.1	1.4
COc1ccc2c3c([nH]c2c1)[C@H](CO)NCC31CN(C(=O)Nc2c(C)noc2C)C1	2.7	6.7	-0.1	-5.2
CCCC(=O)Nc1ccc2c(c1)OC[C@H](C)N(C(C)=O)C[C@H](C)[C@@H](OC)CN(C)C2=O	2.7	7.0	-0.2	-2.0
CS(=O)(=O)N1[C@H](C(=O)NC2CCC2)[C@@H](CO)[C@@H]2Cn3c(ccc(-c4cccc(F)c4)c3=O)[C@@H]21	-2.9	2.1	0.4	-1.7
C[C@@H]1CCCCO[C@H](CN(C)C(=O)Nc2ccc3c(c2)OCO3)[C@H](C)CN([C@@H](C)CO)C(=O)c2cc(N(C)C)ccc2O1	-4.0	2.8	-0.6	0.5
C[C@H]1CCCCO[C@@H](CN(C)CC2CC2)[C@@H](C)CN([C@@H](C)CO)C(=O)c2cc(NC(=O)Nc3ccc(F)cc3)ccc2O1	4.3	1.5	1.4	0.6
C/C=C/c1ccc([C@@H]2[C@@H](CO)N3C(=O)CN(Cc4ccc(C)cc4)C[C@@H]23)cc1	3.2	-5.7	11.6	5.9
CC(=O)N1[C@H](CO)[C@H](c2ccc(C3=CCCC3)cc2)[C@@H]1CNC(=O)CC1CC1	1.6	0.3	0.4	-4.1
CCCNC(=O)N1CC(=O)N2[C@H](CO)[C@@H](c3ccc(C#Cc4ccc(F)cc4)cc3)[C@H]2C1	0.2	-13.9	13.2	-2.0
COc1cc(CN2CC3(CN(S(=O)(=O)c4cccs4)C3)c3c(n(C)c4cc(OC)ccc34)[C@@H]2CO)cc(OC)c1	1.6	-13.3	-1.0	0.2

Random excerpt: seven entries already listed
SMILES	rRNA inh HTS	rRNA inh HTS OD600	rRNA inh HTS RFP	AF4-AF9 inh
C/C=C/c1ccc([C@@H]2[C@@H](CO)N3C(=O)CN(Cc4ccc(C)cc4)C[C@@H]23)cc1	3.2	-5.7	11.6	5.9
COc1cc(CN2CC3(CN(S(=O)(=O)c4cccs4)C3)c3c(n(C)c4cc(OC)ccc34)[C@@H]2CO)cc(OC)c1	1.6	-13.3	-1.0	0.2
CCCNC(=O)N1CC(=O)N2[C@H](CO)[C@@H](c3ccc(C#Cc4ccc(F)cc4)cc3)[C@H]2C1	0.2	-13.9	13.2	-2.0
CS(=O)(=O)N1[C@H](C(=O)NC2CCC2)[C@@H](CO)[C@@H]2Cn3c(ccc(-c4cccc(F)c4)c3=O)[C@@H]21	-2.9	2.1	0.4	-1.7
CC(=O)N1[C@H](CO)[C@H](c2ccc(C3=CCCC3)cc2)[C@@H]1CNC(=O)CC1CC1	1.6	0.3	0.4	-4.1
COc1ccc(NC(=O)N2CC(=O)N3[C@H](CO)[C@@H](c4ccc(Br)cc4)[C@@H]3C2)cc1	-3.8	7.8	-3.1	1.4
C[C@H]1CCCCO[C@@H](CN(C)CC2CC2)[C@@H](C)CN([C@@H](C)CO)C(=O)c2cc(NC(=O)Nc3ccc(F)cc3)ccc2O1	4.3	1.5	1.4	0.6

Sorted by count of non-hydrogen atoms (highest first): part of the list above.
SMILES	rRNA inh HTS	rRNA inh HTS OD600	rRNA inh HTS RFP	AF4-AF9 inh
C[C@@H]1CCCCO[C@H](CN(C)C(=O)Nc2ccc3c(c2)OCO3)[C@H](C)CN([C@@H](C)CO)C(=O)c2cc(N(C)C)ccc2O1	-4.0	2.8	-0.6	0.5
CC(=O)N1[C@H](CO)[C@H](c2ccc(C3=CCCC3)cc2)[C@@H]1CNC(=O)CC1CC1	1.6	0.3	0.4	-4.1
COc1cccc(/C=C/C(=O)OCC(=O)N2c3ccccc3CC2C)c1 (centres undefined)	-18.2*	-22.4*	-3.0*	4.2

(further entries)
SMILES	rRNA inh HTS	rRNA inh HTS OD600	rRNA inh HTS RFP	AF4-AF9 inh
O=C(C[C@@H]1C[C@@H]2c3cc(NC(=O)c4cccnc4)ccc3O[C@@H]2[C@@H](CO)O1)NC1CCCC1	1.6	-3.6	0.5	-7.4
COc1ccc(NC(=O)N2CC(=O)N3[C@@H](CO)[C@@H](c4ccc(-c5ccc(C)cc5)cc4)[C@@H]3C2)cc1	-16.6	-43.0	34.0	3.1
CC(C)NC(=O)Nc1ccc2c(c1)CC(=O)N([C@H](C)CO)C[C@H](C)[C@@H](CN(C)S(=O)(=O)c1ccc(F)cc1)O2	-0.8	0.1	-0.7	-1.6
O=C(C1CC1)N1CC(=O)N2[C@@H](CO)[C@H](c3ccc(-c4ccccc4F)cc3)[C@@H]2C1	-0.7	-0.3	3.7	-3.4
O=C(C[C@@H]1C[C@H]2c3cc(NC(=O)C4CCC4)ccc3O[C@H]2[C@H](CO)O1)NCC(F)(F)F	0.6	-1.4	-2.8	1.2
COc1cccc(-c2ccc(C3[C@@H]4CN(S(=O)(=O)c5ccccc5)C[C@H]3N4)cc2)c1 (some centres undefined)	-59.8	-72.9	-11.1	3.3
Cc1ccc(-c2ccc([C@H]3[C@H]4CN(C(=O)Nc5cccc(F)c5)CC(=O)N4[C@H]3CO)cc2)cc1	6.6	-24.2	28.1	-7.2
C[C@H](NC(=O)C[C@H]1CC[C@@H]2[C@H](COc3ccc(NS(=O)(=O)c4ccc(Cl)cc4)cc3C(=O)N2C)O1)c1ccccc1	-2.7	-1.5	1.3	-3.1
COc1ccccc1S(=O)(=O)N[C@@H]1CC[C@H](CCn2cc(C3CCCC3)nn2)O[C@@H]1CO	-1.3	7.1	-1.2	-14.7
C[C@@H]1CN([C@H](C)CO)C(=O)c2cc(-c3ccc(F)cc3)cnc2O[C@@H]1CN(C)C(=O)CN(C)C	0.1	-4.7	-0.4	-0.2
C/C=C/c1ccc([C@H]2[C@H](CO)N3C(=O)CN(Cc4ccccc4)C[C@@H]23)cc1	0.2	-3.0	0.8	4.5
COc1cccc(C#Cc2ccc([C@H]3[C@H](C#N)N(C(=O)C4CCCC4)[C@H]3CO)cc2)c1	-1.0	-16.4	28.0	-3.1
O=C(Cc1ccccn1)N1CC(=O)N2[C@@H](CO)[C@H](c3ccc(-c4ccccc4)cc3)[C@@H]2C1	3.3	14.2	-0.3	-0.5
COc1ccc(-c2ccc([C@@H]3[C@@H](CO)N4C(=O)CN(C(=O)c5cccnc5)C[C@@H]34)cc2)cc1	-4.4	12.2	-3.2	0.4
O=C(c1ccc(F)cc1)N1CC(=O)N2[C@@H](CO)[C@H](c3ccc(C#CC4CCCCC4)cc3)[C@@H]2C1	0.0	-26.6	14.9	7.7
CNC[C@H]1Oc2ncc(-c3ccccc3F)cc2C(=O)N([C@@H](C)CO)C[C@H]1C	8.5	18.0	2.1	-1.5
CCC(=O)N1[C@H](CO)[C@H](c2ccc(C#CC3CCCCC3)cc2)[C@@H]1CNC(C)C	5.3	-18.1	4.0	8.1
C[C@H]1CCCCO[C@H](CN(C)C(=O)Nc2ccc(F)cc2)[C@@H](C)CN([C@@H](C)CO)C(=O)c2cc(NS(=O)(=O)c3ccc(Cl)cc3)ccc2O1	-1.9	-5.8	1.6	-5.4

Not all compounds are listed (hit frequency here may not be typical).
